Hsc70 – Hsc70 inhibitors, probe displacement, primary screen, biochemical, fluorescence polarization (AID 568) | Hsc70 fluorescence polarization, probe displacement; higher % means a stronger effect; strong numbers were not always called active | one-dose displacement, % at 20 µM; IC50 in µM for titrated hits | 83,000 tested, under 10 active;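 active means displacement above 50% without optical interference and an IC50 on retest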;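 further: ATPase domain with a fluorescein-tagged ATP probe; 0% = vehicle and 100% = excess ADP; read after one hour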
WNV NS2B-NS3 inh – inhibitors of West Nile virus NS2B-NS3 protease; P06935; WNV NS2B-NS3 protease, fluorogenic substrate Ex360/Em465; stronger effect = lower value; z-score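 (tested at a level between 10 and 100 µM)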; 65,000 compounds, 0.18% hits;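 active means z-score at -3 or under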;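 further: score is relative to mean and spread of the compound wells of a plate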
Target sequence (P06935 1371-1501 limits assumed): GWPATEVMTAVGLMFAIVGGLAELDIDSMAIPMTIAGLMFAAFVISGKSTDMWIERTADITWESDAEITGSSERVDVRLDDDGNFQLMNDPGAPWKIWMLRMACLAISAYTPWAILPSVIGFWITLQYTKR
Target sequence (P06935 1502-1679 limits assumed): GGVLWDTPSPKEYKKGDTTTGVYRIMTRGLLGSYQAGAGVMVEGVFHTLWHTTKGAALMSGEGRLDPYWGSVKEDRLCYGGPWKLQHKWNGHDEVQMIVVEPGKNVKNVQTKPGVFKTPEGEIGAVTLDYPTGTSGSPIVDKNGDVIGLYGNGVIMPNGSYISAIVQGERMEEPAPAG
MT1-MMP reporter – inhibitors of MT1-MMP promoter transcription, cell-based, luciferase reporter, luminescence (AID 618); 87,000 compounds, 0.62% hits; calls from a first round at 10 µM; hits with a dose series show EC50 in µM; MT1-MMP promoter luciferase reporter cells, luminescence;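 active means over half of the reporter light lost at 10 µM or EC50 under 50 µM; inactive means the rest and hits that failed the dose series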;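 further: actives suppress MT1-MMP promoter-driven transcription so potencies describe inhibitors; HT1080 fibrosarcoma cells; overnight exposure; toxic or luciferase-blocking compounds were not removed from the actives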
* = called active by the depositor; i = inactive; · = not tested or not shown.

Molecule | Hsc70 | WNV NS2B-NS3 inh | MT1-MMP reporter
Fc1ccc(/C=C2\CCCC3=C2Nc2ncnn2C3c2ccc(F)cc2)cc1 (stereo not given) | 2.1% | · | i
Cc1cccc2cc(C#N)c(N3CCN(C)CC3)nc12 | -1.2% | 0.29 | i
CCOC(=O)Cc1nnc(Nc2cccc(C)c2)c2ccccc12 | 0.5% | · | i
CSc1cccc(NC(=O)CN(c2cccc(C)c2)S(C)(=O)=O)c1 | 4.3% | · | i
O=C(Nc1cnc2ccccc2c1)C1COc2ccccc2O1 (stereo not given) | 0.3% | -0.62 | i
Cc1csc(NC(=O)C2CCN(C(=O)CSc3nnc(C)n3Cc3ccccc3)CC2)n1 | -3.4% | -0.29 | i
COC(=O)CSC1=C(C#N)C(c2sccc2C)CC(=O)N1 (stereo not given) | -1.5% | -0.73 | i
O=C(OCC(=O)N1CCc2ccccc21)c1cccnc1 | -3.2% | 1.1 | i
CCCN1C(=O)C(Cc2nc3ccccc3c(=O)n2C)c2ccccc21 (stereo not given) | -2.2% | · | i
CCOc1ccc(-n2ccnc2SCC(=O)NCc2ccc3c(c2)OCO3)cc1 | 0.3% | -0.12 | i
Nc1nc2c(s1)CC(c1ccccc1)CC2 (stereo not given) | 0.1% | 0.61 | i
O=C(NCc1ccc(F)cc1)c1cc(-c2cccs2)on1 | 3.2% | -0.51 | i
COc1cc(CN2CCN(c3cccc(C)c3C)CC2)cc(Br)c1O | 4.9% | 0.93 | i
COC(=O)NC1CSCC1OC(=O)CCN1C(=O)c2ccccc2C1=O (stereo not given) | -8.0% | -0.18 | i
O=C(Nc1cccc(Cl)c1)Nc1nnc(-c2ccccc2)o1 | -3.3% | · | i
Cc1ncsc1C(=O)Nc1nc2c(s1)CC(C)CC2 (stereo not given) | 2.5% | -0.56 | i
C=CCn1c(SCC(=O)Nc2cc(C)ccc2OC)nnc1-c1ccco1 | -3.2% | 1.3 | i
CCn1c(CCC(=O)Nc2nc3c(s2)CCCC3)nc2cc(S(=O)(=O)N(C)C)ccc21 | 1.9% | -0.12 | i
CC(=O)N1C(=O)C2(C(C#N)=C(N)Oc3n[nH]c(-c4ccccn4)c32)c2ccccc21 (stereo not given) | 1.9% | 0.87 | i
CC(C)Cn1c(SCC(=O)NC(=O)NC2CCCC2)nc2ccccc21 | -4.3% | -1 | i
COc1cccc(-c2nnc3sc(-c4ccccc4)nn23)c1 | -1.4% | -1 | i
Cc1nc2cc(N3CCN(C)CC3)c(NC(=O)Cc3ccccc3)cc2c(=O)n1Cc1ccccc1 | 2.8% | -0.92 | i
Cc1cccc(NC(=O)c2cccs2)n1 | 7.0% | -1 | i
CCc1nc(Nc2ccc(OC)c(OC)c2)c2nnn(Cc3ccccc3Cl)c2n1 | -6.3% | · | i
COc1ccc(/C(O)=C2\C(=O)C(=O)N(Cc3ccco3)C2c2ccc(OC)cc2OC)cc1 (stereo not given) | -2.1% | · | i
Cc1cccc(NC(=O)CCN2C(=O)C3C4C=CC(C4)C3C2=O)n1 (stereo not given) | 1.5% | -0.09 | i
CCCOC(=O)c1ccc(OCC(O)Cn2c(C)nc3ccccc32)cc1 (stereo not given) | 3.1% | 0.8 | i
CCOC(=O)Cn1c(C)c(Br)c(=O)c2cccc(C)c21 | 0.3% | 0.34 | i
O=C(NC12CC3CC(CC(C3)C1)C2)N1CCN(c2ccccn2)CC1 | 1.8% | 1.2 | i
CC1CN(c2nc3ccccc3nc2C(C#N)C(=O)NCc2ccc3c(c2)OCO3)CC(C)O1 (stereo not given) | -19% | -0.06 | i
COC(=O)Nc1ccc(C)c(NC(=O)OC)c1 | -17% | -0.0042 | i
COc1cc(S(=O)(=O)N2CCOCC2)ccc1NC(=O)c1cc2c(s1)CCC2 | -4.6% | -0.47 | i
CCCCC(=O)N(c1ccc(OC)cc1)C1C=CS(=O)(=O)C1 (stereo not given) | -2.6% | 0.32 | i
Cc1cc(Cl)cc(Br)c1OCCCCn1cncn1 | 0.9% | 0.25 | i
N#CC(=C1CCCC1)c1nc(-c2ccccc2O)cs1 | -8.4% | -1.1 | i
Cc1[nH]c(=O)[nH]c(=O)c1S(=O)(=O)N1CCOCC1 | -6.0% | 0.97 | i
CCOC(=O)CSc1nnc(CNC(=O)c2cccs2)n1CCc1ccccc1 | -6.1% | 0.41 | i
CC1CCCC(NC(=O)CSc2nccn2C)C1C (stereo not given) | -9.7% | -0.39 | i
O=C(NCCc1ccncc1)Nc1cccc(Cl)c1 | 4.6% | · | i
Cc1cc(Cl)c2c(c1)[C@]1(C(=O)N2)[C@@H]2C(=O)N(Cc3ccccc3)C(=O)[C@@H]2[C@@H]2CCCN21 | 5.9% | 0.18 | i
COCCn1nnnc1C(c1ccc(C)cc1)N1CCN(Cc2ccc3c(c2)OCO3)CC1 (stereo not given) | -1.2% | 2.9 | i
O=C(Nc1nc(SCc2ccc(F)cc2)ns1)c1ccco1 | 0.1% | 1.6 | i
O=C(NCc1ccco1)c1ccc(CS(=O)(=O)c2cccc(C(F)(F)F)c2)o1 | -2.2% | 0.18 | i
CCC(C(=O)NC1CCCC1)N(C(=O)Cn1nnc(-c2ccc(C)o2)n1)C(C)(C)C (stereo not given) | 2.0% | -1.1 | i
CCOC(=O)c1c(NC(=O)Nc2ccc(Cl)cc2)sc(C)c1C | 0.8% | · | i
CCOc1ccccc1N(CC(=O)NC1CCCC1)C(=O)CCC(=O)Nc1cc(C)on1 | -0.1% | -8.6* | i
Cc1ccc(N2CCCn3c2nc2c3c(=O)n(CC(=O)OCc3ccccc3)c(=O)n2C)cc1C | -6.1% | -0.39 | i
O=C1c2ccccc2NC(c2ccccc2)N1Cc1ccco1 (stereo not given) | 2.3% | -0.23 | i
CC(=O)c1cccc(OCC(=O)c2cc(C)n(-c3cc(C)on3)c2C)c1 | -3.7% | 0.39 | i
O=C(CSc1ccc2nnc(-c3ccccc3)n2n1)NCC1CCCO1 (stereo not given) | -2.4% | -0.23 | i
CCOC(=O)c1[nH]c2ccc(Br)cc2c1NC(=O)CCN1CCC(C)CC1 | -0.5% | · | i
O=C(NCCc1ccc(Cl)cc1)c1cnc2n(c1=O)CCS2 | -1.0% | -0.71 | i
Cc1nn2c(-n3ccnc3)c3c(nc2c1-c1ccccc1)CCC3 | -4.5% | -0.22 | i
COc1ccc(NC(=O)CNS(=O)(=O)c2cccc3nonc23)c(OC)c1 | -1.0% | 0.72 | i
CCC(C)Sc1nc2c(c(=O)[nH]c(=O)n2C)n1Cc1ccccc1Cl (stereo not given) | 3.8% | -0.58 | i
COc1ccc(C2=NO[C@@H]3C(=O)N(c4c(C)cccc4C)C(=O)[C@H]23)cc1OC | 7.0% | -0.21 | i
C#CCOC(=O)C1C2C=CC(C2)C1C(=O)O (stereo not given) | 3.8% | 0.58 | i
COc1ccc([C@H]2[C@@H](C#N)[C@H](C#N)N3CCCN23)cc1 | -0.8% | · | i
COc1ccc(S(=O)(=O)Cc2ccc(C(=O)NC(C)C)o2)cc1 | -4.8% | 0.27 | i
CCOC(=O)c1oc2ccccc2c1CN1CCN(C)CC1 | -0.6% | · | i

Exported field by field: 3 of the compounds above
smiles: Cc1nn2c(-n3ccnc3)c3c(nc2c1-c1ccccc1)CCC3
  Hsc70 = -4.5%; WNV NS2B-NS3 inh = -0.22; MT1-MMP reporter = i

smiles: C#CCOC(=O)C1C2C=CC(C2)C1C(=O)O (stereo not given)
  Hsc70 = 3.8%; WNV NS2B-NS3 inh = 0.58; MT1-MMP reporter = i

smiles: COc1ccc(S(=O)(=O)Cc2ccc(C(=O)NC(C)C)o2)cc1
  Hsc70 = -4.8%; WNV NS2B-NS3 inh = 0.27; MT1-MMP reporter = i

Returning to the listing, starting 2 compounds before the break.
Molecule | Hsc70 | WNV NS2B-NS3 inh | MT1-MMP reporter
COc1ccc(S(=O)(=O)Cc2ccc(C(=O)NC(C)C)o2)cc1 | -4.8% | 0.27 | i
CCOC(=O)c1oc2ccccc2c1CN1CCN(C)CC1 | -0.6% | · | i
Cc1ccc(C(=O)NCCCNCCCNC(=O)c2ccc(C)nc2)cn1 | -6.3% | -0.18 | i
COc1ccc(OC)c(-c2[nH]nc3c2C(c2ccco2)C(C#N)=C(N)O3)c1 (stereo not given) | -44% | -0.87 | i
COc1cc2[nH]c(=O)n(CCC(=O)NC3CCCC3)c(=O)c2cc1OC | -6.8% | 1.4 | i
CS(=O)(=O)c1ccc2nc(NC(=O)CCC(=O)c3cccs3)sc2c1 | 1.1% | -0.2 | i
Cc1c(Cc2ccccc2)c(=O)oc2c(CN(C)C)c(O)c(Cl)cc12 | -1.6% | 9.1 | i
CC(=O)NC1(c2ccccc2)CCN(Cc2nnnn2C(C)(C)C)CC1 | -2.5% | 0.17 | i
COc1ccc(-c2nnnn2C)cc1S(=O)(=O)NCc1ccccc1 | 2.3% | 1.2 | i
COc1ccc(CNc2oc(-c3ccccc3)nc2C#N)cc1 | 4.1% | -0.56 | i
COc1ccc(-n2c(SCC(=O)Nc3sc4c(c3C#N)CCCC4)nnc2-c2ccccc2OC)cc1 | -1.2% | · | i
Cc1ccc(SC(C)C(=O)Nc2cccnc2)cc1 (stereo not given) | 4.1% | · | i
Cn1c(=O)c2c(nc(CN3CCN(c4ccc(F)cc4)CC3)n2Cc2ccccc2F)n(C)c1=O | 3.1% | 1.6 | i
CCOC(=O)N1CCN(S(=O)(=O)c2ccc(OCC(=O)OC)cc2)CC1 | -0.8% | 1.4 | i
CCCCCn1c(=O)[nH]c2cc(C(=O)NCc3ccco3)ccc2c1=O | -0.4% | · | i
Nc1ccc(SC(F)(F)F)cc1C(=O)c1ccccc1 | 1.9% | -0.32 | i
COc1ccccc1NC(=O)Nc1nnc(C(C)C)s1 | -5.2% | -0.21 | i
Cc1ccc(S(=O)(=O)N2CCN(C(=O)CN3CCOCC3)C2c2ccccc2)cc1 (stereo not given) | 0.0% | -0.88 | i
CCOC(=O)C1CCCN(C(=O)C2c3ccccc3Oc3ccccc32)C1 (stereo not given) | 8.7% | -0.61 | i
CCn1c(C)c(C(C)=O)c(N2CCN(c3cccc(Cl)c3)CC2)nc1=S | -5.2% | · | i
Fc1ccc(-c2nnn(Cc3nc4ccccc4s3)n2)cc1 | 1.0% | 0.56 | i
O=C(Nc1ccc(N2CCCC2)cc1)C(c1ccccc1)c1ccccc1 | -4.2% | · | i
Cc1nnc(SCC(=O)Nc2ccccc2)n1CCc1ccccc1 | 3.1% | 1.4 | i
COc1ccc(-c2cc(=O)oc3c(C)c(OCc4nn[nH]n4)ccc23)cc1 | -2.0% | -1.4 | i
Cc1cc(F)ccc1S(=O)(=O)Nc1c(C)n(C)n(-c2ccccc2)c1=O | 5.7% | 1.3 | i
O=C(c1cccc(S(=O)(=O)N2CCCC2)c1)N1CCN(c2ccccc2)CC1 | 6.8% | 0.91 | i
CCSc1nnc(-c2ccccc2N)c(=O)[nH]1 | -0.2% | -0.0077 | i
O=C(O)CC1SC(=Nc2ccccc2)N(c2ccccc2)C1=O (stereo not given) | -0.8% | 0.77 | i
O=C(NCCCn1ccnc1)c1ccc(Cl)c(S(=O)(=O)N2CCOCC2)c1 | -1.0% | -0.84 | i
COc1ccc(OC)c(S(=O)(=O)N2CCC(C(=O)Nc3cccc(C(F)(F)F)c3)CC2)c1 | 6.8% | -0.31 | i
CCOC(=O)Nc1ccc2c(c1)N(C(=O)OCCN(C)C)c1ccccc1CC2 | -3.5% | 0.95 | i
COc1cccc(-c2nnn(CCc3nn[nH]n3)n2)c1 | 3.0% | · | i
O=C1CC(NCc2ccncc2)C(=O)N1c1ccccc1 (stereo not given) | -1.6% | 0.04 | i
O=C(Cn1c(=O)n(-c2ccccc2)c(=O)n1CC(=O)N1CCCCC1)N1CCCCC1 | -1.7% | 0.34 | i
COc1ccccc1NC(=O)CSc1nc(C)c2c(c1C#N)CCCC2 | -6.3% | · | i
COC(=O)c1[nH]c2ccccc2c1NS(=O)(=O)c1ccc(F)c(C)c1 | 2.8% | 0.1 | i
CNS(=O)(=O)c1cccc(C(=O)OCC(=O)Nc2ccccc2OC(F)F)c1 | -13% | 0.23 | i
COc1ccc(C(=O)Nn2cc3c(c2-c2ccccc2)c(=O)n(C)c(=O)n3C)cc1 | -1.8% | -0.32 | i
CC(=O)N1CCN(S(=O)(=O)c2cccc(C(=O)Nc3ccc4c(c3)CCC4)c2)CC1 | -0.6% | 0.12 | i
N#Cc1c(NC(=O)c2cc(-n3cnnc3)ccc2Cl)sc2c1CCCC2 | 0.8% | 0.46 | i
Cn1c(SCc2ccc(Br)cc2)nnc1-c1cccs1 | -2.3% | -0.81 | i
O=C(NCc1ccco1)c1cccc2ccccc12 | -1.4% | 1.4 | i
CCCCC(=O)Nc1sc2c(c1C(N)=O)CCC2 | -1.9% | -0.06 | i
Cc1cc(C(=O)NCc2ccc(S(N)(=O)=O)cc2)c(C)o1 | 6.2% | -0.34 | i
CC(C)CCN1C(=O)CCC1(C)C(=O)NC1CCCCCC1 (stereo not given) | -0.9% | 0.38 | i
COc1ccc(S(=O)(=O)N(Cc2cccs2)C2CCCC2)cc1 | -8.7% | -0.23 | i
CCOC(=O)C1CCN(C(=O)c2cccc(C(=O)N3CCC(C(=O)OCC)CC3)c2)CC1 | 2.9% | -0.77 | i
CCCN1CCC(N2CCN(c3cccc(C(F)(F)F)c3)CC2)CC1 | 5.8% | -0.07 | i
CC(NC(=O)c1ccccc1NS(C)(=O)=O)c1ccccc1 (stereo not given) | -6.8% | 1.2 | i

Source: PubChem BioAssay
